Screens (PubChem BioAssay)
HPGD inh = inhibitors of human 15-hydroxyprostaglandin dehydrogenase (HPGD); Potency, µM, without a hit: at the top dose activity change, negative = inhibition, usual class: inhibitors; hit rate 4.3% among 150,000; purified HPGD, NADH fluorescence kinetic, PGE2 substrate; P15428; active = well fitted inhibition curve with a large enough effect (not every such curve was filed as active); inconclusive = small, poorly fitted or top-dose-only effect, or another doubt; inactive = no such curve, though single readings can be large or run the other way;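 note: top concentration of the series not given in the record; plate controls included wells without enzyme; inactives centre near -10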
Target sequence (P15428 whole entry, looked up): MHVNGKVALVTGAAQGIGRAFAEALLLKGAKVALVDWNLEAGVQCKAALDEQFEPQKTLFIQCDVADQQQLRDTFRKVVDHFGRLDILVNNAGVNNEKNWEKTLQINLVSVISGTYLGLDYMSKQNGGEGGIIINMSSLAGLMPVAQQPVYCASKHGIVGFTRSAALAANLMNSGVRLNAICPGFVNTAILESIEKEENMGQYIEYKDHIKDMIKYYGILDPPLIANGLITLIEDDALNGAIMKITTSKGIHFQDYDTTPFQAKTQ
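NADH formation kinetics: reaction with 30 uM PGE2 and 1 mM NAD+ (final), 20 nM enzyme, Tris-HCl pH 8 with Tween 20, after 15 min compound preincubation at room temperature. Fluorescence change, last versus first of five reads.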
An asterisk follows results filed as active; ? = inconclusive; & = joins results of further samples. % is set by controls: 0 for no effect and ±100 for the full control effect; potency is the fitted concentration of half-maximal effect. Only part of the results is shown. The share of hits here may be higher or lower than overall.

SMILES	HPGD inh
CSc1nc(C)cc(OCCNS(=O)(=O)c2cc(C)ccc2C)n1	0%
O=C(CCNS(=O)(=O)c1cccc2nsnc12)Nc1ccc2c(c1)OCCO2	1%
O=C(c1ccccc1NS(=O)(=O)c1ccc(F)cc1)N1CCc2ccccc21	-16%
CCc1ccc(OCC(=O)OCC(=O)c2ccc3c(c2)NC(=O)CO3)cc1	-20%
Cc1cc(/C=C(/C#N)c2cccc(Cl)c2)c(C)n1C	-12%
Cc1ccc(CN(C(=O)Cc2cccs2)C(C(=O)NC2CCCC2)c2ccncc2)cc1 (stereo not given)	-22%
O=NC1=C(c2c(O)[nH]c3ccccc23)CCCC1	1%
Cc1ccc(C(=O)N2CC3(C)CN(C(=O)c4ccc(C)cc4)CC(C)(C2)C3=O)cc1	-8%
Cc1cccc(NC(=O)c2sc(Cl)nc2-c2ccccc2)c1	-12%
CCOc1ccc(OCC)c(NC(=O)CSc2nnc(-c3cccnc3)o2)c1	6%
Cc1ccc(-c2nnn(CC(=O)N(Cc3cccs3)C(C(=O)NC3CCCC3)c3ccncc3)n2)cc1 (stereo not given)	-7%
Cc1ccc(S(=O)(=O)N2CCCCC2C(=O)N2CCN(C)CC2)cc1 (stereo not given)	-26%
O=c1c(-c2ccc(F)cc2)nc2cnc(N3CCOCC3)nc2n1-c1ccccc1	?
CC(Sc1cccc2cccc(C(=O)O)c12)C(=O)O (stereo not given)	-13%
Cc1cccnc1NC(=S)NC(=O)/C=C/c1ccco1	-21%
CC(C)c1nc(NCCN2CCOCC2)c(C#N)c2c1COC(C)(C)C2	-20%
CCCCNC(=O)C(NS(=O)(=O)c1cccc2nsnc12)c1ccccc1 (stereo not given)	-7%
O=C(NC1CCCC1)C(c1ccsc1)N(C(=O)Cc1cccs1)c1ccccc1 (stereo not given)	-12%
COc1ccc(-c2cc(-c3ccccc3)c(C#N)c(S(C)(=O)=O)n2)cc1	?
CCn1c(Sc2ccc(N)cc2Cl)nc2ccccc21	-8%
O=C(c1cnc2ccccn2c1=O)N1CCc2ccccc21	-6%
COc1cc(C)c(CNC2CCCCC2)cc1C	5%
Cc1cc(C(=O)N/N=C/c2ccc(O)c([N+](=O)[O-])c2)c(C)n1-c1ccc(F)cc1	-20%
CCN(c1cccc(C)c1)S(=O)(=O)c1ccc2c(c1)CCN2C(C)=O	-13%
Cn1c(=O)cc(OCCCC(=O)Nc2ccccn2)c2ccccc21	-11%
CCc1ccc(OCCNC(=O)OCc2ccccc2)cc1	-5%
CSCCC(NS(=O)(=O)c1ccc2c(c1)oc(=O)n2C)C(=O)NC1CCCCC1 (stereo not given)	-2%
CC1(C)S[C@@H]2[C@H](NC(=O)COc3ccccc3)C(=O)N2[C@H]1C(=O)O	-9%
CCC(=O)N(Cc1ccco1)c1nc(-c2ccccc2)cs1	-5%
COCCn1c(SCC(=O)Nc2cccc(C)c2)nnc1C(C)C	-1%
COc1ccccc1OCC(=O)OCC(=O)NCCN1C(=O)CSC1=O	-4%
CCOC(=O)C1(C)NC(c2ccc(N(C)C)cc2)C2C(=O)N(CC)C(=O)C21 (stereo not given)	-8%
Cc1cc(C)n2nc(CC(=O)NCc3ccc(F)cc3)nc2n1	-8%
CCN(CC)CCCNC(=O)C1c2cc(OC)c(OC)cc2C(=O)N(C)C1c1cccs1 (stereo not given)	-8%
Brc1ccc(-c2nc(-c3ccncc3)no2)o1	-8%
O=C(Cn1nc(-c2ccc(F)cc2)ccc1=O)Nc1ccc(C(=O)NC2CC2)cc1	28µM*
CC12CCC(=O)N1C(C(=O)OCC(=O)Nc1ccc(S(N)(=O)=O)cc1)CS2 (stereo not given)	-8%
O=S(=O)(Nc1cccc(-c2cn3cccnc3n2)c1)c1ccccc1	?
CCCCNC(=O)c1ccc2c(OCC)n(CCCC)nc2c1	?
CCc1cc2c(nc1CC)CCN(CC/C(C)=N/O[C@@H](C)c1cc(-c3c(C)cc(C)cc3C)no1)C2	-26%
O=c1cc(CSc2nnnn2-c2ccccc2)[nH]c2[nH]n(-c3ccccc3)c(=O)c12	-15%
Cc1csc(NC(=O)COc2ccc3c(C)cc(=O)oc3c2)n1	?
COCCOC(=O)C1=C(C)NC(=S)NC1/C=C/c1ccccc1 (stereo not given)	-15%
CCCCCSc1nc2c(cnn2-c2ccccc2)c(=O)[nH]1	-10%
O=C(Nc1nc2c(s1)CCCC2)c1ccc(Br)o1	-21%
CSc1nc(NC(C)=O)nc(C)c1Br	-6%
COC(=O)c1sc(=S)n(-c2ccccc2)c1N	14µM*
COc1cccc(CC(=O)NCC2COc3ccccc3O2)c1OC (stereo not given)	-7%
Cc1ncc([N+](=O)[O-])n1C[C@H](O)CCl	-8%
c1csc(-c2cnc3n2CCCC3)c1	-8%
CC1CC(N(C(=O)c2ccccc2Cl)c2ccccc2)c2ccccc2N1 (stereo not given)	-6%
O=C(O)C1=C(C(=O)Nc2ccc(F)c(Cl)c2)CCCC1	-13%
CC(C)C1(C(C)C)OC(=O)c2ccccc21	2%
O=C(CCCSc1nc2ccccc2[nH]1)NC(c1ccccc1)c1ccccc1	-15%
c1ccc2c(c1)nc1n2CCS1	-11%
O=S(=O)(NC1CCCc2ccccc21)c1cnc[nH]1 (stereo not given)	-5%
Cc1cc(=O)oc2ccc(OC(=O)c3cccc(S(=O)(=O)N4CCOCC4)c3)cc12	?
COc1ccc(OC)c(NS(=O)(=O)c2ccc(NC(=O)C3COc4ccccc4O3)cc2)c1 (stereo not given)	-10%
COCCNC(=O)CC(NS(=O)(=O)c1ccc(C)cc1)c1ccco1 (stereo not given)	-6%
CCN1C(=O)N[C@@H](CCc2ccccc2)C(C(=O)OC)=C1C	-4%

The list continues:
SMILES	HPGD inh
CCC(C)(C)NC(=O)C(c1cccnc1)N(CCOC)C(=O)Cn1nnc2ccccc21 (stereo not given)	-4%
COc1ccc(C2=CC(c3ccc(Cl)cc3)n3cnnc3N2)cc1OC (stereo not given)	?
O=S(=O)(NC1CC1)c1ccc(S(=O)(=O)N2CCc3ccccc32)cc1	-5%
COc1ccc(NC(=O)CN(C)S(=O)(=O)c2ccccc2)cc1OC	5%
Cc1ccccc1Cn1cnc2c(nnn2Cc2ccc(F)cc2)c1=O	-10%
CCOn1c(=O)c(-c2cccc([N+](=O)[O-])c2)[n+]([O-])c2ccccc21	?
O=C(CSc1nc(Cc2ccccc2)nc2ccccc12)c1ccc2c(c1)OCCO2	-20%
Clc1ccc(CSc2ncnc3nc[nH]c23)cc1	-9%
Cc1ccc(S(=O)(=O)N2CCCCC2)cc1NC(=O)COC(=O)CNC(=O)c1cc(Cl)cc([N+](=O)[O-])c1	-7%
Cc1ccc(OC(=O)CCc2c(C)nc3ncnn3c2C)cc1	-18%
O=C(CSc1ccc(-c2ccccc2)nn1)Nc1ccc2c(c1)OCCO2	-5%
CCCNc1nc(C)c(C(C)=O)cc1C#N	-17%

6 entries from above, with the structure last:
HPGD inh,Compound
?,CCOn1c(=O)c(-c2cccc([N+](=O)[O-])c2)[n+]([O-])c2ccccc21
-20%,O=C(CSc1nc(Cc2ccccc2)nc2ccccc12)c1ccc2c(c1)OCCO2
-9%,Clc1ccc(CSc2ncnc3nc[nH]c23)cc1
-7%,Cc1ccc(S(=O)(=O)N2CCCCC2)cc1NC(=O)COC(=O)CNC(=O)c1cc(Cl)cc([N+](=O)[O-])c1
-18%,Cc1ccc(OC(=O)CCc2c(C)nc3ncnn3c2C)cc1
-5%,O=C(CSc1ccc(-c2ccccc2)nn1)Nc1ccc2c(c1)OCCO2

Continuation:
SMILES	HPGD inh
O=C1CC(NCc2ccc3c(c2)OCO3)C(=O)N1Cc1ccc2c(c1)OCO2 (stereo not given)	-18%
COc1ccccc1NC(=O)c1ccc(COc2ccc3c(c2)CCC3)cc1	-20%
CCOC(=O)c1sc(Nc2ccccc2)nc1C	?
CCOc1ccccc1-c1nc(C(N)=O)c2[nH]c(=O)n(-c3ccc(F)cc3)c2n1	?
COc1ccccc1/C=C/C(=C1/C(=O)N(c2ccccc2)N=C1C)c1ccc(C)cc1	-8%
NS(=O)(=O)c1ccc(CCNC(=O)CN2CCN(c3ccccc3F)CC2)cc1	-6%
Cc1cccn2cc(CNC(=O)c3ccco3)nc12	-4%
CCOC(=O)C1=C(C)N(CCO)C(=O)NC1c1ccccc1 (stereo not given)	-13%
C=CCON1C(=O)c2ccccc2C1=O	-21%
Clc1cccc(C[n+]2cc(-c3ccccc3)n3c2CCC3)c1	-7%
CC(=O)Oc1ccc2c(c1OC(C)=O)OCC1(O)Cc3c(cc(OC(C)=O)c(OC(C)=O)c3OC(C)=O)C21 (stereo not given)	-8%
C=CCn1c2ccccc2c2nnc(SCc3ccc4nonc4c3)nc21	-30%

Gathered by group, the compounds so far containing fluorine
SMILES	HPGD inh
O=C(c1ccccc1NS(=O)(=O)c1ccc(F)cc1)N1CCc2ccccc21	-16%
O=c1c(-c2ccc(F)cc2)nc2cnc(N3CCOCC3)nc2n1-c1ccccc1	?
Cc1cc(C(=O)N/N=C/c2ccc(O)c([N+](=O)[O-])c2)c(C)n1-c1ccc(F)cc1	-20%
Cc1cc(C)n2nc(CC(=O)NCc3ccc(F)cc3)nc2n1	-8%
O=C(Cn1nc(-c2ccc(F)cc2)ccc1=O)Nc1ccc(C(=O)NC2CC2)cc1	28µM*
O=C(O)C1=C(C(=O)Nc2ccc(F)c(Cl)c2)CCCC1	-13%
Cc1ccccc1Cn1cnc2c(nnn2Cc2ccc(F)cc2)c1=O	-10%
CCOc1ccccc1-c1nc(C(N)=O)c2[nH]c(=O)n(-c3ccc(F)cc3)c2n1	?
NS(=O)(=O)c1ccc(CCNC(=O)CN2CCN(c3ccccc3F)CC2)cc1	-6%

(list continues)
SMILES	HPGD inh
CCOC(=O)Nc1ccc2ncn(C)c(=O)c2c1	?
Cc1cc(C)cc(NS(=O)(=O)c2ccc(NC(=S)Nc3ccccc3)cc2)c1	-15%
CC12CCC(C(=O)N(CSC(=S)N/N=C\c3ccccc3Cl)C1=O)C2(C)C (stereo not given)	?
COc1ccc(C(=O)/C=C/c2cccs2)c(OC(=O)c2cccc([N+](=O)[O-])c2)c1	-16%
O=C(c1cc2ccccc2oc1=O)N(Cc1cccs1)Cc1cccs1	-21%
COc1ccc(/C=C2\SC(=NCc3ccccc3)N(Cc3ccccc3)C2=O)cc1OC	?
C=C(C)CN=C1SC(C(=O)Nc2sc3c(c2C(=O)OC)CCC3)C(N)=C1C(N)=O (stereo not given)	?
C=CCNC(=O)C1CC(=O)N(c2ccc(OCC(=O)Nc3ccc(OC)cc3)cc2)C1 (stereo not given)	-22%
CCCCCOc1ccccc1C(=O)NCCC(=O)O	-17%
COc1cc(OC)c(C(=O)CCCN2CCCC2)c(OC)c1	-5%&-2%
Nc1ccc2c(c1)C(=O)c1ccccc1C2=O	-8%
O=C(c1ccc(Cl)cc1)C1CCN(C(=O)N2CCOCC2)CC1	-3%

Five compounds already listed, arranged by the number in HPGD inh, falling:
SMILES	HPGD inh
Nc1ccc2c(c1)C(=O)c1ccccc1C2=O	-8%
COc1ccc(C(=O)/C=C/c2cccs2)c(OC(=O)c2cccc([N+](=O)[O-])c2)c1	-16%
CCCCCOc1ccccc1C(=O)NCCC(=O)O	-17%
O=C(c1cc2ccccc2oc1=O)N(Cc1cccs1)Cc1cccs1	-21%
C=CCNC(=O)C1CC(=O)N(c2ccc(OCC(=O)Nc3ccc(OC)cc3)cc2)C1 (stereo not given)	-22%

The results go on.
SMILES	HPGD inh
Cc1cccc(Cn2c(N3CCc4ccccc4C3)nc3c2c(=O)[nH]c(=O)n3C)c1	-4%
CCCn1c(N2CCOCC2)nc2c1c(=O)[nH]c(=O)n2C	-6%
O=C(Cc1cccs1)Nc1cccc(C(=O)Nc2ccco2)c1	3%
CN(C)S(=O)(=O)c1ccc(NC(=O)N2CCN(c3ccccc3Cl)CC2)cc1	-3%
CC(C)C[C@H]1C(=O)N2CCC[C@H]2[C@]2(O)O[C@](NC(=O)[C@@H]3C=C4c5cccc6[nH]c(Br)c(c56)CC4N(C)C3)(C(C)C)C(=O)N12 (stereo not given in full)	-23%
CCn1c(=O)c(=O)n(CC)c2cc(S(=O)(=O)N3CCc4ccccc43)ccc21	-25%
Clc1ccc(C2CC(c3ccco3)n3ncnc3N2)cc1Cl (stereo not given)	-3%
CC(C)C(NS(=O)(=O)c1cccc2nsnc12)C(=O)Nc1nc2ccc(Cl)cc2s1 (stereo not given)	-3%
COc1cc(NC2c3ccccc3C(=O)N2c2cc(C)ccn2)cc(OC)c1OC (stereo not given)	-4%
CCC/C=C(\CCC)C(NS(=O)(=O)c1ccc(C(F)(F)F)cc1)c1ccccc1 (stereo not given)	-20%&-16%
CS(=O)(=O)Nc1cccc2cccnc12	-7%
FC(F)(F)c1cc(-c2cccs2)nc(N2CCOCC2)n1	-7%
CC(=O)c1ccsc1B(O)O	-8%
O=C(CSc1oc(-c2ccc(F)cc2)nc1S(=O)(=O)c1ccc(F)cc1)NCC1CCCO1 (stereo not given)	-19%
Cc1nc(OCC(=O)c2ccc(Cl)cc2)c(C#N)c2c1COC(C)(C)C2	-13%
N#Cc1c(-c2ccco2)cc(-c2ccc(F)cc2)nc1N	?
COc1cccc(C(=O)Nc2cnc(NC(=O)c3ccco3)cc2C)c1	-8%
FC(F)(F)c1cc(C(F)(F)F)c2ccc(N/N=C/c3ccccc3)nc2n1	-10%
Cc1ccc(C(=O)O)cc1S(=O)(=O)N1CCSCC1	-3%
O=C(N/N=C/c1ccc(-c2ccccc2C(=O)O)o1)c1cccs1	?
CN(C1CCCCC1)S(=O)(=O)c1ccc(NC(=O)C2CCCCC2)cc1	-14%
O=C(c1cccs1)N1CCN(c2ccc(F)cc2)CC1	-1%
CCCCNc1nc(C)nc2c1nc(-c1ccccc1)n2C1CCN(Cc2ccccc2)C1 (stereo not given)	-21%
O=S(=O)(NCc1ccccn1)c1ccc2c(c1)OCCO2	1%
CCOC(=O)CSc1nc2c(sc(=S)n2CCc2ccccc2)c(=O)n1Cc1ccco1	20µM*
CCOC(=O)c1c(C)c(C(=O)NCc2ccc3c(c2)OCO3)c(C)n1C	-12%
